# Bioassay records deposited in PubChem by National Center for Advancing Translational Sciences (NCATS).
# Menin-MLL FL inh = inhibitors of human menin-MLL interaction, wild-type MLL peptide; Fluorescence polarization, fluorescein-MLL peptide displacement from menin; FP activity change, % at 61.4 µM; 290,000 tested, under 10 active; AID 1766; inconclusive = falling polarisation curve, or a change in total fluorescence; inactive = total fluorescence flat and polarisation flat or rising; no compound was filed as active; the % refers to the polarisation; negative = inhibition;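 also: % of control where 0% means no effect; inhibitors lower the polarisation; unlabelled MLL peptide was the positive control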
# TRPML1 agonist = activates the human TRPML1 channel | TRPML1-expressing cells, Ca2+ dye fluorescence, FDSS; host cell line not named in the record; reference of the full effect not given here | actives 0.12% (n = 410,000) | Q9GZU1 | activation, % (test concentration not listed) | AID 624414; in the data active = activation above about 50%; inconclusive = about 30% to 50%; inactive = below about 30%; also: 0% is about no effect; the text of the record puts the active cut at 80%
# Target sequence (Q9GZU1 whole entry, looked up): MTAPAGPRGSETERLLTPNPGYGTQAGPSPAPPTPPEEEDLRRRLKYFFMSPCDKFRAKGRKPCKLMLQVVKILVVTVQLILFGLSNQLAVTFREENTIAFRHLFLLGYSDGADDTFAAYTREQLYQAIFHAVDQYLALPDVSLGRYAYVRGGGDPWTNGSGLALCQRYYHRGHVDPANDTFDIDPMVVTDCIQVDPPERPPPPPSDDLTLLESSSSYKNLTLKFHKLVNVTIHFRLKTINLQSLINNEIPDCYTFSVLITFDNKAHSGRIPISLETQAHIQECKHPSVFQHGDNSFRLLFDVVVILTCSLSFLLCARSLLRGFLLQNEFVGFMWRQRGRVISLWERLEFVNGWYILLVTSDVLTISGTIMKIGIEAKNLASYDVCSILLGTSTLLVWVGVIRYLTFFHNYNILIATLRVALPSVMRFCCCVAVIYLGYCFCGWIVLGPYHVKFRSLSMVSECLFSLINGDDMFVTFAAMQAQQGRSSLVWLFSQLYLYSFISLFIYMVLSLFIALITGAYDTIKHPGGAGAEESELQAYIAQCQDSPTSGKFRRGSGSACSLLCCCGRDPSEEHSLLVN
#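 Calcium fluorescence on an FDSS kinetic reader gave the read-out. Tet-induced TRPML1-DL cells were plated overnight, dye-loaded (Ca8 with quencher, 45-90 min, room temperature, dark), then read 110 s after compound addition, and again 110 s after 4uM final 54-4 (EC80).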
# ClpP mod = qHTS Assay for Activators of ClpP. purified B. subtilis ClpP, FRET peptide cleavage, 20 min. Potency, µM (titrated, usually from 57.5 µM), without a hit: top-dose activity change, negative = active. actives 1.9% (n = 340,000); active = well fitted falling curve with a large enough effect; inconclusive = small, poorly fitted or top-dose-only effect; inactive = no such curve, though single readings can be large or run the other way; also: potency is read from the fitted curve at half-maximal effect; the source files actives as falling curves though it sought activators and does not explain the sign; nearly all actives have a fitted effect of over 65% in size; many hits overshoot -100%
# Target sequence (P80244 whole entry, looked up): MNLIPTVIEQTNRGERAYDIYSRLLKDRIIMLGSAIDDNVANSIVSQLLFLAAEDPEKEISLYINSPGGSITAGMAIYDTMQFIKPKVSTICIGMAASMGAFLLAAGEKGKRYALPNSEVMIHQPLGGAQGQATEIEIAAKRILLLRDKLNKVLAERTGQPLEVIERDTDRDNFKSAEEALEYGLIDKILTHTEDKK
#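 FRET quenching reversal measured ClpP activation: 10 microg/mL B. subtilis ClpP at pH 8 with the FRET-FV decapeptide, read at 430 nm after 320 nm excitation. The 20-min minus 0-min signal was scaled between DMSO/no-enzyme wells and ADEP (5.8 microM final).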
# PINK1 modulator = PINK1 expression modulation. PINK1 immunofluorescence, high-content cytometry, 24 h. Potency, µM (titrated, usually from 76.6 µM), for the others: at the highest dose activation (PINK1 increase), most hits filed as activators. actives 0.2% (n = 410,000). AID 624263; active = well fitted activation curve with a large enough effect; inconclusive = small, poorly fitted or top-dose-only effect; inactive = flat fitted curve, though single readings scatter; cell line not stated here;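 also: potency is read from the fitted curve at half-maximal effect; % of control where 0% means no effect; nearly all actives have a fitted effect of over 65% in size; a mitochondrial uncoupler was the plate control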
#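 Measures PINK1 amount and localization on or inside mitochondria by immunofluorescence. Stable cells get compounds at 5 concentrations for 24 hours before fixation and staining; CCCP controls included.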
# TRPML1 blocker = human mucolipin-1 channel inhibition | Q9GZU1 | TRPML1-inducible cells, Ca2+ dye fluorescence, FDSS; stronger effect = lower value; inhibition of EC80 agonist-evoked calcium signal | activity change, negative = inhibition, % (concentration not given with the values) | actives 0.02% (n = 390,000) | AID 624415; in the data active means activity change below about -50%; inconclusive means about -30% to -50%; inactive means above about -30%;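 also: stimulus is agonist 54-4 at its EC80 concentration; % is scaled to controls: 0 for no effect and ±100 for the full control effect; compound concentration not given in the record; the text of the record puts the active cut at -80%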
#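 Tet-induced TRPML1-DL cells loaded with Ca8 no-wash calcium dye were read kinetically on FDSS. Compound addition was followed by EC80 agonist 54-4 (4 uM final); inhibition was read over 110 s.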
# Sfp PPTase inh = inhibitors of Bacillus subtilis Sfp phosphopantetheinyl transferase; AID 1490; Biochemical Sfp PPTase activity, qHTS; Q9F4F7; actives 3.5% (n = 310,000); Potency, µM, for inactives: max response, negative = inhibition, hits mostly inhibitors; active = well fitted inhibition curve with a large enough effect; inconclusive = small, poorly fitted or top-dose-only effect, or another doubt; inactive = no such curve, though single readings can be large or run the other way;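 also: the enzyme is Sfp with the accession as filed and its product quenches rhodamine fluorescence; potency is read from the fitted curve at half-maximal effect; 0% = enzyme reaction without inhibitor and -100% = no enzyme wells; top concentration of the series not given in the record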
#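 Fluorescence-quenching assay: 15 nM Sfp-PPTase preincubated 15 min at room temperature with compound, then 5 uM rhodamine-CoA and 12.5 uM BHQ-2-labelled YbbR peptide added. Fluorescence (ex 525/em 598 nm) read at start and after 30 min; difference gives rate.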
# TRPV1 potentiator = potentiators of human vanilloid receptor 1 (TRPV1); Q8NER1; TRPV1-expressing cells, Fluo-8 calcium influx, capsaicin EC20 potentiation; host cell line not named in the record; control for the full effect not named in the record; potentiation, % at 8.33 µM; actives 0.02% (n = 320,000); active means potentiation above 80%; inconclusive means 30% to 80%; inactive means below 30%; also: 0% is about no effect
#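 TRPV1-expressing cells were cultured overnight at 35.5C and loaded with Fluo-8 calcium dye for 40 to 90 min at room temperature. After a 10 s baseline, compound was added and calcium influx was read kinetically for 3 min (ex 480/em 520 nm).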
# Starred values were filed as active, the others as inactive; ? = inconclusive; . = no result given; & = joins results of further samples; [ ] = another dose, or the depositor's remark. Random draw from the library, and some 4.4% of all compounds hit somewhere here.
SMILES,Menin-MLL FL inh,TRPML1 agonist,ClpP mod,PINK1 modulator,TRPML1 blocker,Sfp PPTase inh,TRPV1 potentiator
COc1cc(OC)cc(C(=O)N/N=C/c2ccc(OC)c(COc3ccc4ccccc4c3)c2)c1,.,0.5,-25.0%,4.1%,7.3,0.8%,?
COc1ccc(Nc2nc(-c3cccc([N+](=O)[O-])c3)nc3ccccc23)c(OC)c1,-0.1,-0.2,-2.0%,0.9%,16.3,-25.7%,-2.2
O=C(NCc1nc2ccccc2[nH]1)C1=C[C@@H](c2ccc(C(F)(F)F)cc2)C[C@@H](OCc2ccc(CO)cc2)O1,.,1.8,-2.4%,2.7%,32.5,.,.
Cn1c(=O)c2c(ncn2CC(=O)N/N=C/C=C\c2ccccc2[N+](=O)[O-])n(C)c1=O,4.0,0.2,-1.2%,1.4%,-11.7,15.6%,1.4
CCCC(=O)Nc1ccc(N2CCCCC2)cc1,4.2,-0.2,-1.6%,0.1%,4.3,-4.1%,-24.4
O=C(CSc1n[nH]c(=O)[nH]c1=O)N/N=C/c1ccccc1,0.1,2.3,0.6%,2.8%,3.0,2.2%,-1.0
OC[C@@H]1CN(Cc2ccncc2)C[C@H](n2cnc3c(N4CCOCC4)ncnc32)O1,.,0.4,-1.9%,1.7%,.,.,.
CCn1c(SCC(=O)c2ccc(Cl)s2)nnc1-c1cccs1,1.1,0.5,-7.4%,-0.4%,-9.5,-7.4%,14.4
COc1cc(C(=O)N2CCc3ccccc32)cc(OC)c1OC,-4.6,0.7,-2.8%,4.9%,22.0,2.6%,18.3
OCC[C@@H]1C[C@H](O)[C@@H](O)[C@]2(CCc3ccccc3O2)O1,3.5,0.6,-2.2%,2.3%,-7.3,12.7%,9.1
COc1ccc(CN(C(=O)c2ccccc2OC)C2CCS(=O)(=O)C2)cc1 (configuration not stated),0.3,-0.5,-3.0%,-2.2%,-3.9,14.3%,-1.8
O=C(Nc1cccn(Cc2c(Cl)cccc2Cl)c1=O)c1c(Cl)cccc1Cl,.,-0.4,-13.6%,-3.7%,22.0,10.8%,3.1
CCCCCCCC(=O)Nc1cc(C(=O)NCc2ccc(C)cc2)ccc1N1CCC2(CC1)CC(c1cccc(Br)c1)=NO2,.,-0.6,0.3%,1.0%,15.5,.,2.5
Cc1c(C(=O)N2CC[C@@H](N3CCC(O)CC3)[C@H](O)C2)[nH]c2ccc(Cl)cc12,6.1,0.2,-0.8%,1.8%,43.4,4.3%,12.1
C=C(/C=C/c1ccc(N(C)C)cc1)c1nc2ccccc2s1,.,18.9,-0.2%,10µM*,.,.,.
CC(C)NS(=O)(=O)c1ccc(CCC(=O)NCc2ccc3c(c2)OCO3)cc1,4.3,-0.1,-0.1%,.,0.4,-1.1%,1.0
O=C(NCCNc1ccc([N+](=O)[O-])cc1C(F)(F)F)c1cccc(F)c1,1.1,2.0,-3.5%,-0.2%,0.9,-1.7%,-0.1
CCCCCC1C(C(=O)OCC)C(=O)NC1(C(=O)OCC)C(=O)OCC (configuration not stated),.,-0.4,0.1%,-0.2%,-4.1,.,.
Cc1nnc(SCC(=O)N2CC(=O)Nc3ccccc32)n1Cc1ccccc1,3.0,2.0,-0.3%,-2.1%,18.8,1.5%,-13.6
Cc1ccc(S(=O)(=O)NCc2ccc3c(c2)cc(C)n3C)cc1,-4.7,1.2,-6.0%,-0.1%,-11.9,8.5%,22.4
O=C(CN1CCN(S(=O)(=O)c2ccccc2)CC1)Nc1ccccc1C(=O)NC1CC1,.,0.1,-1.0%,2.2%,3.2,.,-9.3
COc1ccc(S(=O)(=O)N2CCOC2CNC(=O)C(=O)NCCc2ccc(OC)c(OC)c2)cc1 (configuration not stated),6.3,2.5,1.3%,-0.8%,16.0,13.3%,0.3
COc1ccccc1CNS(=O)(=O)c1ccc2[nH]c3c(c2c1)CCCCC3,.,1.9,?,5.1%,11.5,.,9.5
Cc1c(Cc2ccccc2)sc(NC(=O)C(C)(C)C)c1C(N)=O,13.3,1.4,-4.6%,1.0%,-15.8,20µM*,6.7
CC(NC(=O)CN1C(=O)NC2(CCc3ccccc32)C1=O)c1ccccc1 (configuration not stated),.,0.5,-1.1%,2.9%,-4.9,.,0.6
SMILES,Menin-MLL FL inh,TRPML1 agonist,ClpP mod,PINK1 modulator,TRPML1 blocker,Sfp PPTase inh,TRPV1 potentiator
Cc1ccc(C(C)NC(=O)c2ccncc2)c(C)c1 (configuration not stated),1.1,0.8,.,-1.1%,4.8,19.1%,-2.0
CC1(c2nnc(-c3cccc(Cl)c3)o2)CC(c2ccccc2)=NO1 (configuration not stated),.,3.7,3.0%,-0.3%,-14.8,.,.
O=c1oc2ccccc2cc1C1=Nn2c(nnc2-c2cccnc2)SC1,0.4,4.9,-4.1%,-2.8%,10.7,5.1%,-4.3
Cc1cc(NC(=O)COC(=O)C2CC(=O)N(c3ccc(C)c(Cl)c3)C2)no1 (configuration not stated),-0.9,-1.6,-0.1%,3.4%,15.0,13.5%,-13.7
COc1ccc(NC(=O)c2oc3ccccc3c2NC(=O)c2ccco2)cc1,2.5,2.0,-23.5%,11.0%[38.3 µM],19.6,-2.6%,-14.8
O=C(NCCO)/C(=C\c1ccco1)NC(=O)c1cccs1,-8.3,0.3,.,-1.2%,-2.5,?,-6.1
Cc1ccc(C(=O)O)cc1N1C(=O)CCCC1=O,0.5,-0.4,.,1.3%,-12.9,25.3%,17.5
O=C1C(=Cc2cccc(Cl)c2)CCc2ccccc21,.,-0.1,1.6%,-0.3%,.,.,.
Cc1cccc(C)c1OCC(=O)Nn1c(COc2ccccc2)nc2ccccc2c1=O,0.9,2.3,0.8%,.,5.7,2.2%,-12.6
CCOc1cccc(/C=C2/NC(=O)N(CC(=O)Nc3cccc(C)c3)C2=O)c1O,5.0,0.7,.,-3.4%,8.0,5.2%,5.3
CC(C)C[C@@]12C(=O)N(c3cccc(Br)c3)C(=O)N1[C@H](c1ccc(F)cc1)[C@@H]1C(=O)N(C3CCCCC3)C(=O)[C@@H]12,.,-0.1,-0.5%,0.7%,14.6,.,15.8
CCOC(=O)c1sc(NC(=O)CCSC)nc1C,-0.7,-1.1,-1.2%,28.7%[38.3 µM],-1.0,-5.3%,-16.2
CN(C#N)c1nc(N2CCOCC2)nc(N2CCOCC2)n1,.,0.2,-2.7%,-1.3%,-11.3,.,.
FC(F)(F)c1ccc(CN2C[C@@H]3C(c4ccc(C(F)(F)F)cc4)C4(c5cccnc5)CC3(C4)[C@H]2c2ccccc2)cc1 (some centres not stated),6.6&2.5,-0.5,-0.7%,7.4%,16.7,14.8%&10.4%,9.7
CCOc1ccccc1N1CCN(Cc2c(C)n(C)n(-c3ccccc3)c2=O)CC1,0.2,-0.6,.,2.6%,1.9,14.9%,2.9
COc1ccccc1S(=O)(=O)N(C)C[C@@H]1OCc2cnnn2CCCC(=O)N([C@@H](C)CO)C[C@@H]1C,.,0.9,-1.5%,4.1%,14.5,.,.
COc1cc(S(=O)(=O)N2CCN=C2c2ccccc2)c(OC)cc1Cl,.,-0.6,-4.3%,-1.2%,35.2,10.3%,11.5
CCCC(C)n1[nH]c(=O)cc1N (configuration not stated),5.9,-0.1,-2.3%,-1.0%,22.1,-1.3%,0.4
N#Cc1c[nH]n2c(=O)c3c(nc12)CCCC3,-0.5,.,.,.,.,13.5%,-3.4
CC(=O)c1cccc(OCC(=O)N(C)CC(=O)Nc2ccc(F)cc2)c1,-4.5,.,2.8%,-0.3%,.,20.3%,9.9
O=C(CCCN1C(=O)/C(=C/c2ccccc2Cl)SC1=S)NCCCN1CCOCC1,1.4,-0.4,0.7%,10.2%,0.3,-5.7%,-1.4
Cc1ccc(C)c(Nc2cc(C)nc3ncnn23)c1,2.3,0.3,-1.9%,0.5%,-6.6,7.4%,-2.8
Cc1cc(NC(=O)CSc2nccn2-c2ccc(Cl)cc2)no1,5.6,-0.8,1.7%,1.0%,-10.8,-5.7%,3.1
CC1(C)Cc2c(cnn2-c2ccc(F)cc2)C(NC(=O)c2cnccn2)C1 (configuration not stated),.,-0.1,-10.9%,2.8%,10.1,.,.
Cc1ccccc1C(O)c1cccnc1 (configuration not stated),-1.3,-0.3,-2.0%,-1.1%,9.0,9.2%,3.7
SMILES,Menin-MLL FL inh,TRPML1 agonist,ClpP mod,PINK1 modulator,TRPML1 blocker,Sfp PPTase inh,TRPV1 potentiator
Nn1c(SCC(=O)NC2CCCC2)nnc1C(F)(F)F,.,-0.9,1.9%,-0.7%,-5.6,.,.
O=S1(=O)CC(N2CCCCC2)CN1C1CCCCC1 (configuration not stated),.,-0.7,1.4%,-1.1%,.,.,.
C/[N+]([O-])=C/c1c(OCc2ccc(Cl)cc2Cl)ccc2ccccc12,-2.3,-1.1,.,-1.7%,8.4,23.7%,5.3
CN(NC(=O)COc1ccccc1)C1=NS(=O)(=O)c2ccccc21,-0.4,-0.1,-2.0%,0.0%,-11.5,3.3%,-10.0
COc1ccc(N2CCCC2)c(NC(=O)COc2ccccc2)c1,-2.3,0.1,.,-1.9%,9.4,-19.4%,-7.0
O=C(O)CN(Cc1ccccc1)S(=O)(=O)c1ccc2c(c1)OCCO2,-1.6,-0.2,.,0.9%,-13.4,12.6%,22.9
O=C(CCC(=O)c1cccs1)NNC(=O)c1ccccc1O,.,-0.5,-3.6%,2.2%,3.8,.,0.1
FC(F)Oc1ccc(/C=N/NC(=S)Nc2cc(C(F)(F)F)ccc2Cl)cc1,-0.1,0.1,1.3%,3.8%,3.8,4.2%,-6.0
COc1ccc(CCNC(=O)c2nn(C)c3c2CS(=O)(=O)c2ccccc2-3)c(OC)c1,-0.8,1.0,1.0%,-0.8%,4.0,6.1%,0.6
C=C1CCN(C(CC(C)C)C(=O)NCCCc2ccccc2)S(=O)(=O)c2ccccc21 (configuration not stated),0.8,?,.,.,-15.5,4.5%,.
O=C(NC1CC2CCCC(C1)N2S(=O)(=O)c1ccccc1)c1ccccc1 (configuration not stated),-1.1,0.8,-0.6%,-0.7%,-4.8,0.3%,-15.0
Cc1cccc(-n2nc(C(=O)Nc3ccccc3)n3c(=O)cc(-c4ccccc4)nc23)c1,4.4,-0.6,-2.6%,3.2%,30.6,3.2%,10.8
O=C(O)/C=C/c1cn(Cc2ccccc2)nc1-c1ccc(Cl)cc1,4.2,-1.2,1.4%,1.5%,-5.9,9.3%,11.1
O=C(CSc1nnc(-c2ccncc2)o1)NCc1ccccc1,3.9,-0.6,.,-0.5%,-7.9,11.2%,-6.8
